Bead autofluor: counter-screen for toxin protease inhibitors: compound fluorescence. compound autofluorescence counterscreen, microsphere flow cytometry; stronger effect = higher value. fluorescence intensity (concentration not given with the values). actives 3.1% (n = 360,000). AID 624483;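 active = at least 3 SD above the mean of all compounds, about 16000 in these data; inconclusive = too few beads counted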;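 note: 100 nL of 1 mM stock went into each well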
PrP 5UTR inh: inhibition of PrP 5' UTR reporter expression. cell-based PrP 5' UTR mRNA reporter, plate reader. inhibition, % (test concentration not listed). actives 0.35% (n = 340,000). AID 488862;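 active = every replicate at 50% or more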;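 note: 0 = median of the neutral control wells; tested in H4 reporter cells; numbers are from one replicate; inactives centre near -14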
ugtP null kill: growth inhibition of S. aureus ugtP deletion strain. S. aureus RN4220 ugtP deletion, OD600 growth, 16 h; some inactives read as strong as hits. growth inhibition, % (concentration not given with the values). actives 0.54% (n = 330,000);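 active = z-score under -3 and OD600 up to 0.15 on both plates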;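 note: plate controls were untreated wells for no effect and antibiotic for full effect; wells of about 80 µL received 100 nL stock; the first replicate is given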
BJeLR viability: kills HRASV12-expressing BJeLR cells. BJeLR (HRASV12) viability, CellTiter-Glo ATP luminescence, 48 h; reference of the scale not given here. AID 1554. actives 0.17% (n = 300,000). inhibition, % (no concentration beside the values);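 active = replicate mean above 50%; inconclusive = above 50% but judged a plate artefact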;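 note: 50 nL library stock added to about 25 µL; numbers are from one replicate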
Mtb hypoxia rep: inhibitors of hypoxia-regulated fluorescent reporter in Mycobacterium tuberculosis; M. tuberculosis hypoxia-regulated fluorescent reporter, fluorescence; fluorescence inhibition, % (no concentration beside the values); actives 0.1% (n = 300,000);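 active = 35 to 45% if threefold the growth effect, above 45% if 1.5-fold the growth effect; inactive = the rest, general growth blockers included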;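 note: wells of about 50 µL received 100 nL stock; 0% = vehicle wells and 100% = reference inhibitor wells; whole bacteria with a GFP reporter of the hypoxia response; strong numbers were not always called active; many hits fall short of the cut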
Sa RN4220 lethal: kills Staphylococcus aureus RN4220; actives 0.33% (n = 330,000); S. aureus RN4220 growth, OD600, 16 h; inhibition, % (no concentration beside the values);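 active = z-score of -3 or lower and OD600 up to 0.18 on both plates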;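 note: plate controls were untreated cells for no effect and reference antibiotic for full effect; stock transfer was 100 nL into about 80 µL; one replicate is shown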
Mtb hypoxia rep growth: second read-out of Mtb hypoxia rep, no call of its own (marks repeat the call); growth inhibition, %; measured here: M. tuberculosis growth (absorbance);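 0% = vehicle and 100% = reference antibiotic; read after six days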
* hit, by the source's call; u = inconclusive; x = no result given.

SMILES	Bead autofluor	PrP 5UTR inh	ugtP null kill	BJeLR viability	Mtb hypoxia rep	Mtb hypoxia rep growth	Sa RN4220 lethal
CC(C)OCCCN1CC(=O)N2C(c3cccc([N+](=O)[O-])c3)c3[nH]c4ccccc4c3C[C@H]2C1=O (some centres not stated)	3873	-21	-2	-2	5	5	2.4
Nc1[nH]n(-c2ccccc2)c(=O)c1N=Nc1ccccc1	4807	-57	-8	0	-13	1	5.6
CC(=O)c1cccc(NC(=O)NC(C)c2ccncc2)c1 (configuration not stated)	4401	2	0	-1	-5	-12	3.0
CCOC(=O)CNC(=O)CSc1nc(N(C)C)nc(N2CCOCC2)n1	4761	4	-1	6	x	x	-0.9
CC(C)c1ccc(NC(=S)NN2C(C)CCCC2C)cc1 (configuration not stated)	3839	-26	6	-12	-7	-3	-0.1
O=C(Cn1nnc2ccccc2c1=O)Nc1cc(C(F)(F)F)ccc1N1CCOCC1	2717	-9	2	-7	x	x	3.0
CN1C(=O)C(N=Nc2ccccc2C(=O)O)N(C)C1=S (configuration not stated)	4875	-43	x	-5	x	x	x
COc1ccc(C)cc1NC(=O)CCNS(=O)(=O)c1cccc(C(F)(F)F)c1	5190	-31	2	-2	12	3	7.9
Cc1cc(OC(F)F)ccc1NC(=O)Nc1ccc([N+](=O)[O-])cc1	2462	2	-7	-3	-8	-1	26
O=C(COc1ccc(S(=O)(=O)Nc2ccccc2)cc1)NCc1ccccn1	6239	-2	3	4	9	11	4.7
O=C(Cc1ccccc1)Nc1ccc2oc(-c3ccncc3)nc2c1	2455	-17	3	1	x	x	-1.4
Cn1c(=O)[nH]c(=O)c2c1nc1n2CCCN1Cc1ccccc1	x	x	10	-4	0	1	1.9
CCN1CCC(NC(=O)Nc2ccc(F)cc2)CC1	2485	-8	5	5	-3	11	1.9
O=C(Cc1cccc2ccccc12)Nc1ccccc1C(=O)O	15720	-26	3	0	5	3	4.4
Cn1c(=O)c([N+](=O)[O-])c(NCC(O)c2ccccc2)c2ccccc21 (configuration not stated)	3176	-2	12	-4	5	7	5.8

One compound at a time (already shown).
O=C(Cc1ccccc1)Nc1ccc2oc(-c3ccncc3)nc2c1 reads Bead autofluor = 2455; PrP 5UTR inh = -17; ugtP null kill = 3; BJeLR viability = 1; Mtb hypoxia rep = x; Mtb hypoxia rep growth = x; Sa RN4220 lethal = -1.4
O=C(Cc1cccc2ccccc12)Nc1ccccc1C(=O)O reads Bead autofluor = 15720; PrP 5UTR inh = -26; ugtP null kill = 3; BJeLR viability = 0; Mtb hypoxia rep = 5; Mtb hypoxia rep growth = 3; Sa RN4220 lethal = 4.4

Following part:
SMILES	Bead autofluor	PrP 5UTR inh	ugtP null kill	BJeLR viability	Mtb hypoxia rep	Mtb hypoxia rep growth	Sa RN4220 lethal
COc1cc(NC(=O)COc2ccc(Cl)cc2)ccc1-c1cc2ccccc2oc1=O	2135	-17	-2	-9	-9	-5	3.8
O=C(CN1CCN(Cc2ccc(Cl)cc2)CC1)N1CCc2ccccc21	3925	-31	-7	-8	23	7	6.7
CC1(C)CC(=O)C(C=NC2CC(C)(C)NC(C)(C)C2)=C(O)C1	12384	4	0	-4	3	6	0.8
COc1ccc(-c2noc(CCC(=O)NCCCN3CCN(c4ccccc4F)CC3)n2)cc1	2384	-12	9	0	-3	-1	-1.2
CCC1=C2CC[C@H]3C(=O)N(C)C(=O)[C@H]3[C@H]2[C@@]2(Cc3ccccc3)C(=NCC(=O)OC)OC(=O)N2C1=O	4017	-2	x	-1	x	x	x
CC(=O)N(CCC(c1ccco1)C(C)C)Cc1ccc(OC(C)C)cc1 (configuration not stated)	3808	-5	20	-7	1	2	6.0
CC1(C)CNc2cc([N+](=O)[O-])ccc2S1	2173	-39	0	-3	11	12	0.1
O=C(NCCNC(=O)c1cc(F)cc(F)c1)c1cc(F)cc(F)c1	3232	-14	13	2	-4	3	-0.1
COCCN(C(=O)COC(=O)c1ccccc1NCc1ccco1)c1c(N)n(Cc2ccccc2)c(=O)[nH]c1=O	5310	-19	4	2	3	8	2.8
CCOC(=O)c1c(N/C=C(\C#N)c2nc(-c3ccc(OC(C)=O)cc3)cs2)sc2c1CCC2	3058	7	0	x	17	2	-0.6
CC1=NN(c2ccccc2)C(=O)C1=Cc1cn(CCC#N)nc1-c1ccc(Cl)cc1	x	x	-7	x	8	2	8.3
CC(=O)c1c(C)[nH]c(C(=O)CSc2nnc(-c3ccco3)o2)c1C	3500	-30	-8	-3	4	-4	2.9
Cc1ccc(NC(=O)CSc2nnc(-c3cccnc3)s2)cc1	8435	-56	1	-9	-6	1	-4.6
COc1ccc2c(C)cc(Sc3nnnn3-c3ccccc3)nc2c1	2539	-25	-2	-7	6	16	0.6
COCCCNC(=S)NNC(=S)Nc1cccc(Cl)c1	x	-18	0	-9	6	4	2.4
COc1ccc(Oc2nc3c(c(=O)n(C)c(=O)n3C)n2Cc2cccc(OC)c2)cc1	5189	-19	-3	-3	x	x	2.2
Cc1ccc(S(=O)(=O)NC(=O)c2cccc(C)c2)cc1	5838	-15	4	1	10	3	3.6
CC(=O)n1cc([C@H]2C=C(C(N)=O)O[C@@H](OCc3ccc(CO)cc3)C2)c2ccccc21	4168	-21	x	-6	x	x	x
Cn1cc([N+](=O)[O-])c(C(=O)NCc2cc3ccccc3[nH]2)n1	2295	-12	-6	0	-6	10	0.1
Cc1ccc(NS(=O)(=O)c2ccc(C(=O)N3CCCN(C)CC3)cc2)cc1	3271	-11	10	-3	11	3	2.1
Cc1ccc(OCCC(=O)OCC(=O)NC(=O)NC2CCCCC2)cc1	3981	-16	9	26	7	-3	3.9
N#CC(C#N)=C1C=CC=CN1/C(=C\c1ccco1)C(=O)c1ccc(-c2ccccc2)cc1	2517	-8	-4	x	6	1	1.7
COc1ccc(C(=O)N/C(=C/c2cccs2)C(=O)NCCCn2ccnc2)cc1OC	20263*	-9	3	4	1	5	4.6
COc1ccc(NC(=O)c2cccc([N+](=O)[O-])c2)cc1	2456	-33	8	-3	-3	0	-1.5
COc1ccc(/C=C\C(=O)Oc2cccc(/C=N/NC(=O)Cc3ccc(OC)c(OC)c3)c2)cc1	2093	-40	x	-1	x	x	x
NC(=O)NC(=O)CSc1nc2cc([N+](=O)[O-])ccc2n1-c1cccc(C(F)(F)F)c1	4236	0	-6	0	0	-4	7.0
COc1ccccc1NS(=O)(=O)c1ccc(C(=O)NCC(c2ccccc2OC)N(C)C)cc1 (configuration not stated)	5663	-11	0	-1	6	13	-1.5
CC(=O)c1cccc(NC(=O)Nc2nc(C)cc(C)n2)c1	5645	-32	-3	-7	13	-5	1.5
CCN(CC)CCC(c1ccc(N(C)C)cc1)c1c(OC)cc(OC)c2c(-c3ccccc3)cc(=O)oc12 (configuration not stated)	4215	-37	-2	x	-2	0	-1.0
COc1ccc(OC)c(NC(=O)c2cccnc2Sc2cc(C)ccc2C)c1	2027	-27	6	-6	9	-5	2.4

Single entries from above:
In PrP 5UTR inh, Nc1[nH]n(-c2ccccc2)c(=O)c1N=Nc1ccccc1 reads -57
In Mtb hypoxia rep, CC(=O)c1cccc(NC(=O)NC(C)c2ccncc2)c1 (configuration not stated) reads -5
In Mtb hypoxia rep growth, CC(C)OCCCN1CC(=O)N2C(c3cccc([N+](=O)[O-])c3)c3[nH]c4ccccc4c3C[C@H]2C1=O (some centres not stated) reads 5

(listing goes on)
SMILES	Bead autofluor	PrP 5UTR inh	ugtP null kill	BJeLR viability	Mtb hypoxia rep	Mtb hypoxia rep growth	Sa RN4220 lethal
COc1ccc(NC(=O)C(C)Oc2ccc(C(C)=NO)cc2)cc1 (configuration not stated)	x	x	0	x	4	6	3.7
Cc1cccc(-n2c(Cc3cc(=O)[nH]c(=O)[nH]3)nnc2SCC(=O)NCC2CCCO2)c1 (configuration not stated)	5913	-8	3	x	x	x	3.3
CSc1cccc(NC(=O)CN(c2cc(C)ccc2C)S(C)(=O)=O)c1	3193	7	-3	4	6	13	3.0
O=c1[nH]c(=S)[nH]c(O)c1N=Nc1cc(S(=O)(=O)Nc2ccc(Cl)cc2)ccc1Cl	6101	-19	-5	x	0	2	-9.5
CSc1ccc(CN2CCCC(CNC(=O)c3ccc(F)cc3)C2)cc1 (configuration not stated)	5740	-11	1	2	10	-2	0.5
Clc1nc(-c2ccccc2)c2ccccc2n1	4383	-19	13	-2	10	13	1.5
CCCc1ccc2oc(C(=O)N(C)Cc3cnccn3)c(C)c2c1	6054	-28	1	8	10	0	2.4
CCOc1ccccc1NC(=O)CSc1nnc2c(CC)c(C)nc(N)n12	11678	-1	1	7	1	5	1.8
Cc1ccc(S(=O)(=O)NN2C(=O)c3ccccc3NC2c2ccccn2)cc1 (configuration not stated)	3484	-50	8	11	10	6	3.5
Cc1cc(C)c(C2=CSC3=NS(=O)(=O)CCN23)c(C)c1	4489	-45	8	-2	-2	3	-0.3
CC(C)NC(=O)Nc1cccc2c1O[C@H](CN(C)S(=O)(=O)c1cccs1)[C@@H](C)CN([C@H](C)CO)C2=O	2935	-8	7	x	1	-4	2.5
CC(Oc1ccccc1Cl)C(=O)N(Cc1ccco1)C1CCS(=O)(=O)C1 (configuration not stated)	10829	-34	7	-2	16	4	3.0
COc1ccc(OC)c(/C=C/C(=O)OCC(=O)N2CCCCC2)c1	3538	-26	9	x	5	11	7.0
O=C(Nc1cccc(Cl)c1)OCCN1CCN(Cc2ccccc2)CCC1=O	3699	-26	2	-4	-1	7	2.0
COC(=O)c1sccc1NC(=O)CC1C(=O)NCCN1C(=O)c1ccc(F)cc1 (configuration not stated)	6189	2	-3	-13	12	4	4.9

Among those listed so far, these have a COOH group:
SMILES	Bead autofluor	PrP 5UTR inh	ugtP null kill	BJeLR viability	Mtb hypoxia rep	Mtb hypoxia rep growth	Sa RN4220 lethal
CN1C(=O)C(N=Nc2ccccc2C(=O)O)N(C)C1=S (configuration not stated)	4875	-43	x	-5	x	x	x
O=C(Cc1cccc2ccccc12)Nc1ccccc1C(=O)O	15720	-26	3	0	5	3	4.4

Additional structures.
SMILES	Bead autofluor	PrP 5UTR inh	ugtP null kill	BJeLR viability	Mtb hypoxia rep	Mtb hypoxia rep growth	Sa RN4220 lethal
Cc1nn(C)c(C(=O)N/N=C/c2cc3c(cc2Br)OCO3)c1Br	8163	-19	x	-24	x	x	x
Cc1cccc(N(Cc2ccccc2)C(=O)c2ccccc2F)c1	3709	-11	3	-1	-7	-3	12
COc1ccc(NC(=O)CN2CCC(NC(=O)C3CCCCC3)CC2)cc1	23189*	-31	8	-2	7	0	-0.8
C=CCNC(=O)c1ccccc1NC(=O)c1ccccc1N(C)S(C)(=O)=O	2143	-9	-2	0	6	-1	1.5
Cc1ccc(C2N(c3cc(C)on3)C(=O)C3CCCN32)cc1 (configuration not stated)	9017	-16	4	-15	5	2	7.2
COc1ccc(C(=O)COC(=O)c2cc(=O)[nH]c3ccccc23)c(OC)c1	u	-91	-2	2	5	-5	0.1

Arranged by formula weight (largest number first): 6 of the compounds above.
SMILES	Bead autofluor	PrP 5UTR inh	ugtP null kill	BJeLR viability	Mtb hypoxia rep	Mtb hypoxia rep growth	Sa RN4220 lethal
COC(=O)c1sccc1NC(=O)CC1C(=O)NCCN1C(=O)c1ccc(F)cc1 (configuration not stated)	6189	2	-3	-13	12	4	4.9
O=C(Nc1cccc(Cl)c1)OCCN1CCN(Cc2ccccc2)CCC1=O	3699	-26	2	-4	-1	7	2.0
COc1ccc(NC(=O)CN2CCC(NC(=O)C3CCCCC3)CC2)cc1	23189*	-31	8	-2	7	0	-0.8
COc1ccc(C(=O)COC(=O)c2cc(=O)[nH]c3ccccc23)c(OC)c1	u	-91	-2	2	5	-5	0.1
Cc1cccc(N(Cc2ccccc2)C(=O)c2ccccc2F)c1	3709	-11	3	-1	-7	-3	12
Cc1ccc(C2N(c3cc(C)on3)C(=O)C3CCCN32)cc1 (configuration not stated)	9017	-16	4	-15	5	2	7.2

Screening results deposited in PubChem BioAssay by several laboratories.
